nsP2pro primary – inhibitors of chikungunya virus nsP2 protease; Q8JUX6; FRET peptide cleavage, nsP2pro, fluorescence 1 h; Potency, µM (doses to about 24.9 µM), for the others: at the highest dose activity change, negative = inhibition, hits mostly inhibitors; 31,000 compounds, 1.1% hits; AID 1964107; active means well fitted inhibition curve with a large enough effect; inconclusive means small, poorly fitted or top-dose-only effect; inactive means no such curve, though single readings can be large or run the other way; further: nearly all actives have a fitted effect of over 60% in size; a reference inhibitor and vehicle were the controls
Target sequence (Q8JUX6 whole entry, looked up): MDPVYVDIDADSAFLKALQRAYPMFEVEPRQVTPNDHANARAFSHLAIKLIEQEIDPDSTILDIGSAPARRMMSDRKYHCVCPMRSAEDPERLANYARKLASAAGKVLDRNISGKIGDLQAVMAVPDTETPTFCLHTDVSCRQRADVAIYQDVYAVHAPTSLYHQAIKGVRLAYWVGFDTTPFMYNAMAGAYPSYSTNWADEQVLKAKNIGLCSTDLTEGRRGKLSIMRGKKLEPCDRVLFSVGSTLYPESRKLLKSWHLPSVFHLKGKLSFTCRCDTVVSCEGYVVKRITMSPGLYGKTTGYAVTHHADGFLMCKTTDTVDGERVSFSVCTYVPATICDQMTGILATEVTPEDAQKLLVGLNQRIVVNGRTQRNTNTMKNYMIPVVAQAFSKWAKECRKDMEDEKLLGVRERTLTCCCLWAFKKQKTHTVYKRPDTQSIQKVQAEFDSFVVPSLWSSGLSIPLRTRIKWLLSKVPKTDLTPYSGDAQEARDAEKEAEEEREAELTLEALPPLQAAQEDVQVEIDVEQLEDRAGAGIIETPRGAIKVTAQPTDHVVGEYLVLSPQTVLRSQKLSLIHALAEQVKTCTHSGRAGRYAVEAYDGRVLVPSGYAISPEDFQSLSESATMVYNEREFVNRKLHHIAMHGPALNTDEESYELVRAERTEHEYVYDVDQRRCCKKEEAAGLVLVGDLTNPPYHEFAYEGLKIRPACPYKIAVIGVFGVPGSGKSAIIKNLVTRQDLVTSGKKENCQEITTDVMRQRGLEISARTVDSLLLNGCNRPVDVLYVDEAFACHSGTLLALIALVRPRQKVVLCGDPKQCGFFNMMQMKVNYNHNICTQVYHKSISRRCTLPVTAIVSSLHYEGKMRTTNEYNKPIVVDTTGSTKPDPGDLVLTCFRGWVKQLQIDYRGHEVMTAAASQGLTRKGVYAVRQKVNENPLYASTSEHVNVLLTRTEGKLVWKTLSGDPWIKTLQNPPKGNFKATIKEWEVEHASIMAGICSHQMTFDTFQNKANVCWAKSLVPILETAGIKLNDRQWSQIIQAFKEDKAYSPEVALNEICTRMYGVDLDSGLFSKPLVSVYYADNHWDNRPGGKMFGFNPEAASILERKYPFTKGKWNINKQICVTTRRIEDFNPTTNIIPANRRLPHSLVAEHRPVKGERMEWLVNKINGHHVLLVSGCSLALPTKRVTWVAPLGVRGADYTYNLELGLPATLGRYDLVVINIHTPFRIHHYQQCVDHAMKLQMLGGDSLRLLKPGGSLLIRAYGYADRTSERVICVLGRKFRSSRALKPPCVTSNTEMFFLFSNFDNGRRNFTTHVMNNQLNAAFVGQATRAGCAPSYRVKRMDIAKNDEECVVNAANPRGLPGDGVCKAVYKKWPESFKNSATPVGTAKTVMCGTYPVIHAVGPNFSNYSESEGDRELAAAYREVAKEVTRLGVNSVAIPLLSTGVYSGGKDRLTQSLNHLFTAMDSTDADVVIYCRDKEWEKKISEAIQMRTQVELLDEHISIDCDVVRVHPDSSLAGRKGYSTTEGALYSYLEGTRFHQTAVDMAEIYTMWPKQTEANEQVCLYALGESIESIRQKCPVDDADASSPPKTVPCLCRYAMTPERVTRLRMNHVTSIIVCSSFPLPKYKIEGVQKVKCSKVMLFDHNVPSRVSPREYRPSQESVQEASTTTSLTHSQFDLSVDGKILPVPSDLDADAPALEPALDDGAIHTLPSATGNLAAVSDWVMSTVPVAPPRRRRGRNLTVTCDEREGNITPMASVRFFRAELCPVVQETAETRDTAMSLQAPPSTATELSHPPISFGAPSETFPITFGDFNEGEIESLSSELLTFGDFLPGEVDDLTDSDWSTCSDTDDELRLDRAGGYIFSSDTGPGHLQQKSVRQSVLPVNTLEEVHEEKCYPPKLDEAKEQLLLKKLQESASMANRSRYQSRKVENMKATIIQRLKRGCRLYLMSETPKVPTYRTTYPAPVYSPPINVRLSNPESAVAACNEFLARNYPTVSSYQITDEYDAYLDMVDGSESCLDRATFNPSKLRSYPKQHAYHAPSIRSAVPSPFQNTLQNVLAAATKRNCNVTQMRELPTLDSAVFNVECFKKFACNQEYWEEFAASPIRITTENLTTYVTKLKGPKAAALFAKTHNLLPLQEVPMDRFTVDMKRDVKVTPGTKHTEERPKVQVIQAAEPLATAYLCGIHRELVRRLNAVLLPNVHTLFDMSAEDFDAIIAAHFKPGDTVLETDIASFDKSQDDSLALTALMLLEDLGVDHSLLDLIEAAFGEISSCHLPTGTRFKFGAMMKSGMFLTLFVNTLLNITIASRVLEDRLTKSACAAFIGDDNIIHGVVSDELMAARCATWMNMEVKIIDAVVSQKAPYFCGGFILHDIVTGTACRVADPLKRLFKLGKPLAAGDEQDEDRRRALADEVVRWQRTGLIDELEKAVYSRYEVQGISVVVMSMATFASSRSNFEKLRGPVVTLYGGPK
Active calls of the source: *; i = inactive; ? = inconclusive; & = joins results of further samples; [ ] = another dose, or the depositor's remark. On the % scale 0 is the no-effect control and ±100 the full control effect; potency means the concentration at half of the fitted maximal effect. The list is partial; the hit share may differ from the screen's.

no.	Structure	nsP2pro primary
1	C[C@@H]1O[C@@H](OC2C(CO)OC(OCC3OC(OC(=O)[C@]45CCC(C)(C)CC4C4=CCC6[C@@]7(C)CC[C@@H](O)[C@](C)(C(=O)O)C7CC[C@@]6(C)[C@]4(C)CC5)C(O)C(O)C3O)C(O)C2O)[C@H](O)[C@H](O)[C@H]1O (stereo partly drawn)	-8%[5.1 µM]
2	CN(C)C[C@H]1C[C@@H](CO)CN(C(=O)c2ccccc2-c2ccc(F)cc2)C1	i
3	Cc1cccc(Oc2nc3c(C)cccn3c(=O)c2/C=C(\C#N)c2nc3ccccc3[nH]2)c1	-15%
4	O=C(CSc1c2c(nc3ccc(Cl)cc13)CCCC2)N1CCN(c2cccc(Cl)c2)CC1	-16%
5	COc1cc(-c2cc(OC)c3c(C)oc(C)c3c(=O)c2)ccc1OC(=O)c1cccc(C)c1	-25%
6	COc1ccc2[nH]c(C(=O)N3CCCCCNC(=O)[C@@H]4CCC[C@@H]43)cc2c1	-6%
7	NC1CCCCN(C(=O)c2ccc(Cn3cccn3)o2)C1 (stereo not drawn)	i
8	CC(C)C1=NOC2(CCN([S+](=O)([O-])c3cccs3)C2)C1 (stereo not drawn)	-2%
9	Cc1ccc(C)c(Nc2cc(C(=O)NCCCN(C)C3CCCCC3)c3ccccc3n2)c1	30%[activator]
10	Cc1cccc(C)c1NC1=NCCCS1	3%
11	COc1ccc(Cl)cc1C(=O)Nc1nc(-c2ccccc2)cs1	-3%
12	CCOc1cccc(CN2C[C@@H](Oc3ccccc3)C[C@@H]2C(=O)NC)c1	-21%
13	N#Cc1nc(NCCCO)nc(Nc2ccccc2)n1	i
14	O=C(C[C@@H]1C[C@H]2O[C@H](CNC3CCC(F)(F)CC3)[C@@H](O)[C@H]2O1)N1CCC(F)(F)C1	i
15	CCc1cccc(-n2nnnc2N2CCN(C(=O)Cc3ccc(C)c(F)c3)CC2)c1	-8%

no.	Structure	nsP2pro primary
16	COc1ccccc1NC(=O)C1=C(C)Nc2nc(-c3ccco3)nn2C1c1ccccc1F (stereo not drawn)	?
17	Cc1ccc(CNC(=O)c2c(-c3ccc(Br)cc3)noc2C)o1	-15%
18	O=C(c1ccc2c(c1)N(Cc1cccc(Cl)c1)C(=O)c1ccccc1S2(=O)=O)N1CCCC1	-10%
19	O=C1C(c2ccccn2)=[N+]([O-])c2ccccc21	?
20	Cc1cccc(C(=O)Nc2nnc(S(=O)(=O)N(C)Cc3ccco3)s2)c1	?
21	CCCn1cc(S(=O)(=O)c2ccccc2)c(=O)c2cc(F)c(N3CCCC3)cc21	-10%
22	CC1(C)CC[C@]2(C(=O)O)CC[C@]3(C)C(=CCC4[C@@]5(C)CC[C@H](O[C@@H]6O[C@H](C(=O)O)[C@@H](O)[C@H](O)[C@H]6O)C(C)(CO)C5CC[C@]43C)C2C1 (stereo partly drawn)	-10%[10 µM]
23	CCC(=O)O[C@]1(C(=O)COC(C)=O)CC[C@H]2[C@@H]3CCC4=CC(=O)CC[C@]4(C)[C@H]3[C@@H](O)C[C@@]21C	-6%
24	CCC(C)NC(=O)CSc1nc2cc3c(cc2c(=O)n1CCCC(=O)NCCc1ccc(OC)c(OC)c1)OCO3 (stereo not drawn)	-12%
25	COc1cc(C(=O)OCCCN2CCCN(CCCOC(=O)c3cc(OC)c(OC)c(OC)c3)CC2)cc(OC)c1OC	4%
26	Cc1sc2c(c1C)C(c1ccc(Cl)cc1)=N[C@@H](CC(N)=O)c1nnc(C)n1-2	-1%
27	C=CCNC(=O)N1CC[C@H]2CC(=O)N(C3CC3)CC[C@H]2C1	2%[39.2 µM]
28	COc1ccc(NC(=O)c2cc3c([nH]c2=O)CC(c2ccccc2)CC3=O)cc1 (stereo not drawn)	-24%
29	CC(O)(C(=O)O)C1CCC2(C)C1CCC1(C)C2CCC2C3(C)CCC(O)C(C)(COC4OC(CO)C(O)C(O)C4O)C3CCC21C (stereo not drawn)	-21%[10 µM]
30	CC(C)CNC(=O)N1CCC(Nc2cccnc2)C1 (stereo not drawn)	?

no.	Structure	nsP2pro primary
31	O[C@@H](COc1cccc2ncccc12)CN1CCN(C2c3ccccc3[C@@H]3[C@H](c4ccccc42)C3(F)F)CC1 (stereo partly drawn)	32%&-2%[activator]
32	Cc1cc(C)c2c(=O)cc(CSc3nnc(-c4ccccc4)n3C)[nH]c2c1	-8%
33	COc1cccc(CNc2ccc(S(=O)(=O)Nc3ccc(-c4ccccc4)cc3)cc2)c1O	-9%
34	CC1CCN(CCCC(=O)c2ccc(F)cc2)CC1	-5%
35	CCN1CCC2(CCC1=O)CN(Cc1nc(C(=O)NC)no1)CCN2C (stereo not drawn)	3%
36	CN(C)[C@@H]1CO[C@H](CNC(=O)CC(C)(C)C)[C@H]1O	-58%[39.2 µM]
37	CC(C)(O)C(O)C(=O)OCc1ccc(O[C@@H]2O[C@H](CO)[C@@H](O)[C@H](O)[C@H]2O)cc1 (stereo partly drawn)	3%[10 µM]
38	CCCN(CCC)c1ccc(C2N=C(N)Nc3nc4ccccc4n32)cc1 (stereo not drawn)	58%[activator]
39	CC(C)Oc1ccccc1C1C=C(C(=O)O)Nc2ncnn21 (stereo not drawn)	-14%
40	O=C(N[C@@H]1CCOC[C@H]1OCCO)c1ccc2c(c1)ncn2CCO	-3%
41	Cc1cccc(-n2ccnc2SCC(=O)Nc2cccc3ccccc23)c1C	-12%
42	CC(C)CN1CC2=C(C1=O)C(c1ccccc1Cl)N=C(Nc1nc3ccccc3o1)N2 (stereo not drawn)	i
43	CCOC(=O)c1c[nH]c2cc(OCC(C)C)c(OCC(C)C)cc2c1=O	-5%
44	C[C@]12CC[C@@H]3c4ccc(O)c(O)c4CC[C@H]3[C@@H]1CCC2=O	?
45	Oc1ccc(CNc2cc(Br)ccn2)c2cccnc12	i

no.	Structure	nsP2pro primary
46	O=S(=O)(c1cccc(Cl)c1)n1c(/C=C/c2ccccc2Cl)nc2ccccc21	-5%
47	C[C@H](O)c1onc(-c2ccc(F)cc2)c1C(=O)N1CCCC1	-3%[39.2 µM]
48	COC(=O)c1ccc2c(c1)[nH]c1ncnc(NCCCN3CCCCC3)c12	34%[activator]
49	Cn1cccc1CN1CC(F)(F)C[C@H]1c1nnc(C2CC2)o1	?
50	O=[S+]([O-])(c1ccc2ncsc2c1)N1CCN([S+](=O)([O-])c2c(F)cccc2F)CC1	2%
51	COc1ccc(CNC(=O)CCc2nc3cccnc3n2Cc2ccc(OC)cc2)cc1	-4%
52	CCC(Sc1nnc(-c2ccc(OC)c(OC)c2)c(-c2ccc(OC)c(OC)c2)n1)C(=O)NC1CCCC1 (stereo not drawn)	-16%
53	CCN(Cc1nccn1C)C(=O)c1cc(-c2cnc(C)nc2)nc2ccc(F)cc12	-3%
54	CC(C)(C)c1cccc(-n2cnc3cc(C(=O)N4CCCCC4)ccc32)c1	2%
55	CCN(c1ccccc1)c1nnc(NC(=O)Nc2cccc(C(F)(F)F)c2)s1	-28%
56	Cc1nn(C)c2c1c(C(F)(F)F)cc(=O)n2C(C)C(=O)NCCc1ccc(Cl)cc1 (stereo not drawn)	-8%
57	c1ncc(CN2CCn3c(nnc3C3CCCNC3)C2)s1 (stereo not drawn)	?
58	COc1cc(OC)cc(C(=O)NCCc2csc3nc(-c4ccccc4F)nn23)c1	-5%
59	NC(=O)c1cnc(N[C@@H]2CCCC[C@@H]2N)nc1Nc1cccc(-n2nccn2)c1	187%[activator]
60	Cc1cc(NCc2ccc(-c3cccnc3)cc2)nc(-c2ccccc2C(C)C)n1	4%

no.	Structure	nsP2pro primary
61	Cc1cc(C)c2c(=O)cc(CSCC(=O)Nc3nnc(C)s3)[nH]c2c1	-2%
62	CS(=O)(=O)N(C1CC1)C1CCOC2(CCN(C(=O)NCc3ccccc3)CC2)C1 (stereo not drawn)	?
63	COc1ccc(OC)c(NC(=O)Cn2c(CCC(=O)O)ccc2-c2ccccc2)c1	?
64	Cn1nccc1CN1CC2(C1)C(=O)Nc1ccccc12	-7%[39.2 µM]
65	O=C(c1ccccc1F)N1CCC(Cc2nc(-c3cnccn3)no2)CC1	-12%
66	Cc1cc(C#N)cc(C)c1Oc1nc(Nc2ccc(C#N)cc2)nc(N)c1Br	?
67	COc1ccc(OC)c(CCNC(=O)c2c3c(nc4ccccc24)C(=O)N(C2CCCCC2)C3)c1	-19%
68	Nc1nc(NCC2CCC(CNS(=O)(=O)c3cccc4ccccc34)CC2)nc2ccccc12 (stereo not drawn)	?
69	COCCn1c(C)cnc1CC1CCN(C(=O)C2CC2)CC1	-3%
70	O=C(NC1CCCC1)c1cc(Nc2cccc(C(F)(F)F)c2)nc2ccccc12	-11%
71	O=C(Nc1nc(-c2ccccc2)cs1)c1ccncc1NS(=O)(=O)c1ccc2ccccc2c1	i
72	CC1(C)CC[C@]2(C(=O)OC3OC(CO)C(O)C(O)C3O)CC[C@]3(C)C(=CCC4[C@@]5(C)CC[C@H](OC6OC(C(=O)O)C(O)C(O)C6O)C(CO)(CO)C5CC[C@]43C)[C@@H]2C1 (stereo partly drawn)	11%[5.1 µM]
73	NC(=O)CCNC(=O)C1=C[C@@H](NC(=O)c2cccs2)[C@@H](O)[C@H](O)C1	-1%[39.2 µM]
74	CCOc1ccccc1NC(=O)CSc1nc2c(oc3ccccc32)c(=O)n1-c1ccc(F)cc1	-24%
75	CCCCc1nc2ccccc2n2c(-c3ccc(OC)cc3)c3c(=O)n(C)c(=O)n(C)c3c12	-6%

A draw from above in order of formula weight, ascending:
no.	Structure	nsP2pro primary
75	CCCCc1nc2ccccc2n2c(-c3ccc(OC)cc3)c3c(=O)n(C)c(=O)n(C)c3c12	-6%
68	Nc1nc(NCC2CCC(CNS(=O)(=O)c3cccc4ccccc34)CC2)nc2ccccc12 (stereo not drawn)	?
74	CCOc1ccccc1NC(=O)CSc1nc2c(oc3ccccc32)c(=O)n1-c1ccc(F)cc1	-24%

The list continues:
no.	Structure	nsP2pro primary
76	CC1=CC(=O)CC(C)(CO)C1(O)/C=C/C(C)O[C@@H]1O[C@H](CO)[C@@H](O)[C@H](O)[C@H]1O (stereo partly drawn)	31%[10 µM]
77	CC(C)(O)c1ccccc1CC[C@@H](SCC1(CC(=O)O)CC1)c1cccc(/C=C/c2ccc3ccc(Cl)cc3n2)c1	249%&161%[activator]
78	Cc1ccc(NS(=O)(=O)c2cc3c(cc2Cl)CCC(=O)N3)cc1C	1%&-10%
79	Cc1cc(C)c2c(=O)cc(CSCC(=O)Nc3ccccc3Cl)[nH]c2c1	-13%
80	CN1CCC(C(=O)NCc2c[nH]c3ncccc23)CC1	i
81	Cc1nn2c(c1-c1ccccc1-c1ccccc1)N(C(=O)c1cnccn1)CCC2	-6%[39.2 µM]
82	CC(C)=CCC/C(C)=C/Cc1ccc(O)c(C2OC(=O)c3cc(C(=O)O)cc(O)c32)c1O (stereo not drawn)	58%[activator][10 µM]
83	CCOC(=O)c1[nH]c2c(c1Cc1ccccc1OC)C(=O)CC(c1ccccc1)C2 (stereo not drawn)	-26%
84	COc1ccc(-n2nc(C3CCCN(C(=O)c4ccc(Cl)nc4)C3)[nH]c2=O)cc1 (stereo not drawn)	1%
85	COc1cc2c(cc1Oc1ccccc1)NC(=O)C21CCN(c2nc(C)cnc2C)CC1	i
86	Clc1cccc(N2CCN(c3nc4ccccc4c4nc(-c5cccnc5)nn34)CC2)c1	32%
87	CCOc1nc(NC(=O)NS(=O)(=O)Oc2ccccc2Cl)nc(-c2ccccc2)n1	-24%
88	C[C@H]1[C@@H]2[C@@H](O)C([C@H](C)C(=O)NCc3cccnc3)CC[C@@]2(C)CC[C@@H]1NC(=O)c1ccccn1 (stereo partly drawn)	3%
89	Cc1ccc(NC(=O)C(Cc2ccccc2)NS(=O)(=O)c2ccc3c(c2)c(=O)n(C)c(=O)n3C)c(C)c1 (stereo not drawn)	-13%
90	CCc1nc(C(N)=O)c(Nc2ccc(N3CCC(N4CCN(C)CC4)CC3)c(OC)c2)nc1NC1CCOCC1	-10%&12%

no.	Structure	nsP2pro primary
91	O=C(O)c1ccc(Cn2cnc3cccnc32)cc1	-12%
92	c1ccc(-c2nc(NCc3ccc(-c4cccnc4)cc3)c3ccccc3n2)cc1	1%
93	CCN(C)C(=O)CN1C[C@@H]2C[C@H]1C(=O)N2c1cc(-c2ccccc2)ccc1OC	i
94	CSc1cccc(NC(=O)c2ccc3c(c2)CCCN3S(C)(=O)=O)c1	0%
95	O[C@@H]1CCN(Cc2nc(C3(O)CCN(Cc4ccccc4F)CC3)cs2)C1	-2%[39.2 µM]
96	CCC[C@@H]1CN(C(=O)c2ccccc2-c2ccccc2F)C[C@H]1NC(C)=O	-4%
97	CCOc1ccc(C2c3cc(OCC)c(OCC)cc3CC(=O)N2c2ccc(C(=O)O)cc2)cc1OCC (stereo not drawn)	-23%
98	Cc1c(Cl)cccc1NC(=O)Cn1c(CCC(=O)O)ccc1-c1cccs1	6%
99	COc1ccc(CCNC(=O)C(=O)NCC(c2ccco2)S(=O)(=O)c2cccs2)cc1OC (stereo not drawn)	-13%
100	NC1=N[C@@]2(c3cc(NC(=O)c4ccc(F)cn4)ccc3F)COC[C@H]2CS1	-14%&1%&-6%
101	C/C=C(/COC(=O)/C(C)=C/C)C(=O)OC(CC)c1ccc(OC)c(OC)c1 (stereo not drawn)	?

Rewritten as labelled records: entries from further up
91	O=C(O)c1ccc(Cn2cnc3cccnc32)cc1
  nsP2pro primary: -12%
92	c1ccc(-c2nc(NCc3ccc(-c4cccnc4)cc3)c3ccccc3n2)cc1
  nsP2pro primary: 1%
93	CCN(C)C(=O)CN1C[C@@H]2C[C@H]1C(=O)N2c1cc(-c2ccccc2)ccc1OC
  nsP2pro primary: i
94	CSc1cccc(NC(=O)c2ccc3c(c2)CCCN3S(C)(=O)=O)c1
  nsP2pro primary: 0%

Screening results deposited in PubChem by National Center for Advancing Translational Sciences (NCATS).
